Anaer choline gr: inhibitors of anaerobic choline-dependent gram-negative bacterial growth. AID 1963822. Gram-negative bacterium anaerobic choline minimal medium, absorbance growth; stronger effect = lower value; many inactives read as strong as hits in the columns shown. calls only. hit rate 0.2% among 55,000;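 active = growth z-score on choline under -2 at 7 or 20 h with little or no fall on glycerol, limits in tiers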;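 note: stock transfer was 300 nL into about 50 µL; the organism is E. coli; final concentration not given here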
Anaer choline gr early: second read-out of Anaer choline gr, no call of its own (marks repeat the call); z-score; measured here: choline growth z-score, timepoint 1;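 score of optical density at 7 h as mean of two plates; lower means less growth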
The depositor's hits bear a star; i = inactive. Not all compounds are listed; count on the stated rates, not on these rows.

Results follow in this order: Anaer choline gr, Anaer choline gr early
CCc1nc(-c2csc(S(=O)(=O)N3CCCC(C(=O)NC4CCCC4)C3)c2)no1 (configuration not stated)
  i, 0.18
CC1=CC(c2ccccc2)n2nc(NS(=O)(=O)c3ccc(C)cc3)nc2N1 (configuration not stated)
  i, -0.02
CC(C)(C)c1ccc(C(=O)CCCN2CCC(OC(c3ccccc3)c3ccccc3)CC2)cc1
  i, -0.37
COc1ccccc1OCCn1c(CCNC(=O)c2cccc(C)c2)nc2ccccc21
  i, 1.2
O=C(CCC1CCCC1)Nc1cc(-c2ccco2)no1
  i, 0.66
CC(C)c1cc(C2CCCN2S(=O)(=O)c2ccc(Cl)cc2)on1 (configuration not stated)
  i, 0.46
Cc1ncc(CO)c2cc(-c3nc(-c4ccc(Br)cc4)no3)c(=O)oc12
  i, 0.67
Cc1cc(NC(=O)CN2C(=O)COc3ccc(S(=O)(=O)N4CCC(C)CC4)cc32)ccc1Br
  i, 0.27
COc1ccc(-n2c(Cc3cccn3C)nnc2SCC(=O)N2CCC(C)CC2)cc1
  i, 0.58
CCc1nc2ccccc2c(=O)n1Cc1noc(CN2C(=O)COc3ccccc32)n1
  i, 0.5
Cc1ccc(-c2nccc(N3CCC(C(=O)Nc4ccc5c(c4)OCO5)CC3)n2)cc1
  i, 0.69
O=C1COc2ccc(S(=O)(=O)N3CCCC(C(=O)Nc4ccc5c(c4)OCO5)C3)cc2N1 (configuration not stated)
  i, 0.72
CCC(C(=O)N1CCCCC1)N1C(=O)CCCc2ccccc21 (configuration not stated)
  i, 0.43
c1ccc(-c2nnc(-c3cccnc3NC3CCCC3)o2)cc1
  i, -0.12
O=C(CN1C(=O)CC(c2ccc(F)cc2)=Nc2ccccc21)NCCc1ccccc1
  i, 2.5
Cc1ccc(NC(=O)c2nnc(CCC(=O)Nc3ccc(Cl)cc3)s2)cc1
  i, 0.01
Cn1ccnc1SCC(=O)Nc1cccc(Br)c1
  i, -0.63
CC(C)NC(=O)Cn1nc2n(C(C)C)c(=O)c3ccc(C(=O)NC4CCCC4)cc3n2c1=O
  i, 0.44
COc1cccc(COc2cc(C)c3c(C)nn(C)c3n2)c1
  i, 0.31
CCOC(=O)C(CCc1ccccc1)NC(C)C(=O)N1C(C(=O)O)CC2CCCC21 (configuration not stated)
  i, 0.63

Of the compounds above, these have a Cl atom.
Results follow in this order: Anaer choline gr, Anaer choline gr early
CC(C)c1cc(C2CCCN2S(=O)(=O)c2ccc(Cl)cc2)on1 (configuration not stated)
  i, 0.46
Cc1ccc(NC(=O)c2nnc(CCC(=O)Nc3ccc(Cl)cc3)s2)cc1
  i, 0.01

Continuation.
Results follow in this order: Anaer choline gr, Anaer choline gr early
CCOC(=O)CCNC(=O)NCCc1nc2cccnc2n1-c1ccccc1
  i, 1.1
Cc1cc2n(n1)CCC(=O)N2C(C)C(=O)NCCc1ccc(Cl)cc1 (configuration not stated)
  i, 0
CCc1cc(C2CCCN2C(=O)Nc2ccc(Br)cc2)on1 (configuration not stated)
  i, -0.72
CCSc1nnc(-c2nn(C)c3c2CN(S(=O)(=O)c2ccc(OC)c(Cl)c2)CC3)n1CC
  i, -0.4
O=C(CSc1nc(-c2ccc(Cl)cc2)nc2cc(=O)[nH]n12)Oc1ccccc1
  i, -0.07
CCN(Cc1ccc(Cl)cc1)Cc1cc(=O)n2nc(C3CC3)sc2n1
  i, -0.88
CC(C)CNC(=O)CN1CCN(c2ccc(NC(=O)C3CC3)c(C(=O)O)c2)CC1
  i, 0.48
Cc1ccc(-c2nc(C3CCN(S(=O)(=O)c4ccc(C)c(F)c4)CC3)no2)cc1
  i, 0.47
CCC(C)NS(=O)(=O)c1c(C)[nH]c(C)c1-c1nnc(C2CCC2)o1 (configuration not stated)
  i, -0.17
COc1ccccc1-c1cc(NC(=O)COc2ccccc2Cl)n(-c2ccccc2)n1
  i, -0.17
COc1ccc(OC)c(NS(=O)(=O)c2cc3[nH]c(=O)[nH]c3cc2Cl)c1
  i, 0.32
CCOC(=O)CNC(=O)N1CCCC1c1cc(C(C)C)no1 (configuration not stated)
  i, -0.35
Cc1cc(-n2nnc(C(=O)OCc3ccc(Cl)cc3)c2C)ccc1Br
  i, 1.6
Cc1oc2ncn(CC(=O)Nc3cccc(Cl)c3C)c(=O)c2c1C
  i, 0.77
COc1ccc(NC(=O)Nc2cccc(-c3noc(C4CCC4)n3)c2)c(OC)c1
  i, -0.12
Cc1ccc(NC(=O)N2CCCC(c3nnc(C(=O)Nc4ccc(F)cc4)s3)C2)cc1C (configuration not stated)
  i, 1.3
O=S(=O)(Nc1ccc(Cl)cn1)c1cc(-c2noc(C3CC3)n2)cs1
  i, 0.09
CC(C)c1ccc(-c2cc3n(n2)CC(C)(C(=O)NC2CCCCC2)N(CCN(C)C)C3=O)cc1 (configuration not stated)
  i, -0.39
O=c1c2ccccc2n2c(SCc3ccc(F)cc3)nnc2n1Cc1ccc(F)cc1
  i, -1.7
Cc1ccc(C)c(N2CCN(C(=O)CCCN3C(=O)c4ccccc4Sc4ncccc43)CC2)c1
  i, 0.21
Cc1nn(-c2ccccc2)c(C)c1CCc1nn2c(-c3ccncc3)nnc2s1
  i, -0.67
Cc1ccc(NC(=O)Cn2nnc(C(=O)O)c2C(=O)O)cc1Cl
  i, -0.76
CC(C)n1cnc(S(=O)(=O)N2CCCC(C(=O)N3CCCCC3)C2)c1 (configuration not stated)
  i, 1
CCOC(=O)c1cnc(SCC(=O)Nc2ccc(C)cc2)nc1N
  i, 1.5
Cc1ccccc1CN1C(=O)CC(c2ccccc2)=Nc2ccccc21
  i, 0.96
Cc1nn(CCCC(=O)NC2CCCC2)c(=O)c2nn(-c3ccccc3)c(C)c12
  i, -1.4
Cc1cccc(-c2csc(-c3nc(-c4cccc(Br)c4)no3)c2-n2cccc2)c1
  i, 0.32
C=Cc1ccc(Cn2nc3n(C)c(=O)c4ccc(C(=O)NC5CCCC5)cc4n3c2=O)cc1
  i, -0.88
Cc1nc(-c2cccc(C(=O)N3CCN(c4nc5ncccc5o4)CC3)c2)no1
  i, 0.57
O=C(Nc1ccc(C(=O)N2CCN(c3ccccn3)CC2)cc1)c1nnc(COc2ccccc2)s1
  i, 1.7
CC(C(=O)NC1CCCC1)N1C(=O)CCCc2ccccc21 (configuration not stated)
  i, 0.22
O=S(=O)(c1ccc(NCCC2=CCCCC2)nn1)C1CCCCC1
  i, 0.21
COc1cc(O)cc(C2CC(=O)c3c(O)cc(OC4OC(CO)C(O)C(O)C4OC4OC(C)C(O)C(O)C4O)cc3O2)c1 (configuration not stated)
  i, 0.68
CC1CCN(c2c(NCc3ccc(C(=O)N4CCn5c4nc4ccccc45)cc3)c(=O)c2=O)CC1
  i, 1
Cc1nn(-c2nc3ccccc3n2C)c2c1C(c1ccc(F)cc1Cl)CC(=O)N2 (configuration not stated)
  i, 1.1
CC1CCN(C(=O)CN2C(=O)CN(C(=O)Nc3ccccc3)c3ccccc32)CC1
  i, 0.32
O=S(=O)(Nc1ccc(-c2ccc(N3CCCC3)nn2)cc1)c1ccc(F)cc1F
  i, -0.07
COc1ccc(NC(=O)c2nnc(SCC(=O)NCc3ccccn3)s2)cc1
  i, -0.83
CCOc1ccc(-c2nn3c(=O)c(NC(=O)c4ccc(Cl)cc4)cnc3o2)cc1
  i, -1.5
CS(=O)(=O)N1CCCC1c1ccccc1Cl (configuration not stated)
  i, -0.84

Molecules above that have a thiophene ring, fused or not, in the order listed:
Results follow in this order: Anaer choline gr, Anaer choline gr early
CCc1nc(-c2csc(S(=O)(=O)N3CCCC(C(=O)NC4CCCC4)C3)c2)no1 (configuration not stated)
  i, 0.18
O=S(=O)(Nc1ccc(Cl)cn1)c1cc(-c2noc(C3CC3)n2)cs1
  i, 0.09
Cc1cccc(-c2csc(-c3nc(-c4cccc(Br)c4)no3)c2-n2cccc2)c1
  i, 0.32

Next section:
Results follow in this order: Anaer choline gr, Anaer choline gr early
CC(C)n1cnc2nc(CSc3ccc(NC(=O)c4ccc(F)cc4)cc3)cc(=O)n21
  i, 1.3
O=C1CCSc2ccc(S(=O)(=O)NCc3ccccn3)cc2N1
  i, -0.94
O=C(NCc1ccccn1)c1cccc(-c2nc(-c3ccc(F)cc3)no2)c1
  i, 1.5
CC1(C(=O)NC2CCCC2)COc2c(oc3ccccc23)C(=O)N1Cc1ccccc1F (configuration not stated)
  i, 0.85
Cn1nc(-c2ccc(C(=O)N3CCN(c4ccccc4)CC3)cc2)c2ccccc2c1=O
  i, 0.51
CC(C)C(=O)Nc1ccc2nc(SCC(=O)N3CCOCC3)sc2c1
  i, -0.94
Cc1ccc(OCC(=O)Nc2ccc3[nH]c(=O)[nH]c3c2)c(-n2cnnc2)c1
  i, 3.3
CCOC(=O)c1[nH]c2ccc(OC)cc2c1NC(C)=O
  i, -0.01
Cc1ccc(C)c(NC(=O)CCc2nc(-c3ccc(S(=O)(=O)N4CCCC4)cc3)no2)c1
  i, 0.54
CC1CCC(NC(=O)CCc2nc3sc4c(c3c(=O)[nH]2)CCCCC4)CC1 (configuration not stated)
  i, -0.53
CN(C)c1cccc(-c2nn3c(-c4ccc5ccccc5n4)nnc3s2)c1
  i, 0.52
O=S(=O)(c1ccccc1)N1CCC(c2noc(-c3ccccc3)n2)CC1
  i, 0.1
Cn1nnc2cc(C(=O)Nc3ccc(S(N)(=O)=O)cc3)ccc21
  i, 0.44
O=C(CSc1nnc2c3ccccc3nc(-c3ccccc3)n12)NCC1CCCO1 (configuration not stated)
  i, 0.28
CCNC(=O)c1cc(C)nc2c1c(=O)n(C)c(=O)n2C
  i, 0.56
COc1ccc(N2CCN(c3nccc4ccc(C(=O)NC5CCCC5)cc34)CC2)cc1
  i, -1.3
CCc1ccccc1NS(=O)(=O)c1cc(-c2nc(C)c(C)s2)sc1C
  i, 1.4
COCCCNS(=O)(=O)c1cc(-c2nc(C)cs2)n(CC(=O)N2CCCCC2)c1
  i, -0.37
O=C(Nc1ccnn1C1CCCC1)c1ccc(Br)cc1
  i, -0.63
Cc1ccc(F)cc1S(=O)(=O)NCCc1n[nH]c(Cc2ccc(F)cc2)n1
  i, -0.63

Some of the entries so far, with tabs:
Structure	Anaer choline gr	Anaer choline gr early
CC1CCC(NC(=O)CCc2nc3sc4c(c3c(=O)[nH]2)CCCCC4)CC1 (configuration not stated)	i	-0.53
Cn1nc(-c2ccc(C(=O)N3CCN(c4ccccc4)CC3)cc2)c2ccccc2c1=O	i	0.51
O=C(Nc1ccnn1C1CCCC1)c1ccc(Br)cc1	i	-0.63

The list continues:
Results follow in this order: Anaer choline gr, Anaer choline gr early
CCCCNCc1cc(=O)n2[nH]c(NCc3ccc(C)cc3)nc2n1
  i, -0.38
Cc1ccc(CNC(=O)c2nc(-c3cn(-c4ccccc4)nc3C)no2)cc1
  i, 0.13
Cc1ccc(-c2nc(CN3CCN(C(=O)Nc4ccc(C)c(C)c4)CC3)c(C)o2)cc1
  i, -0.81
Nc1ccccc1SCC1=NNC(=O)c2ccccc2O1
  i, 0.39
CCS(=O)(=O)N1CCN(c2cc(-c3cccc(C)c3)ncn2)CC1
  i, -0.31
Cc1csc(-c2cc(S(=O)(=O)NCCC(C)C)cn2CC(=O)N2CCCCC2)n1
  i, 0.31
Cc1nc(-c2ccc(C)c(S(=O)(=O)NCC(=O)Nc3cccc(C)c3C)c2)no1
  i, -0.15
Cc1sc2c(=O)n(C3CC3)cnc2c1C(=O)NCCCN1CCOCC1
  i, -0.63
Cc1[nH]nc(-c2ccc(S(=O)(=O)NC(C)C)o2)c1C
  i, 0.37
CC1CCc2noc(NC(=O)COc3ccccc3Cl)c2C1 (configuration not stated)
  i, -0.49
CC1CCN(Cc2nnc(-c3cn(CC(=O)NC4CC4)c4ccccc34)o2)CC1
  i, -0.31
Cc1ccc(OCC(O)Cn2c(C3CC3)nc3ccccc32)c(C)c1 (configuration not stated)
  i, -0.49
CCCC(=O)Nc1c(C)nc(Nc2ccc(C)cc2)nc1Nc1ccc(C)cc1
  i, 0.77
Cc1ccc(S(=O)(=O)N2CCCCC2C(=O)N2CCN(c3ccccc3F)CC2)cc1 (configuration not stated)
  i, 0.58
CCc1ccccc1N(C)S(=O)(=O)c1ccccc1-c1nc(-c2ccccc2)no1
  i, -0.55
COc1ccc(-c2nc3ccccc3s2)cc1NC(=O)c1ccccc1F
  i, -0.05
O=C(CN1CCCCC1c1nc(-c2cccs2)no1)NCc1cccs1 (configuration not stated)
  i, -0.11
CC1CCN(S(=O)(=O)c2ccc3c(c2)CCC(=O)N3CC(=O)NC2CCCCC2)CC1
  i, -1.2
CC(C)c1cc(C2CCCN2C(=O)c2ccco2)no1 (configuration not stated)
  i, -0.35
Cc1ccccc1-c1noc(-c2cc(-c3ccc(C(C)C)cc3)n[nH]2)n1
  i, 0.36
CCS(=O)(=O)N1CCN(c2cc(N3CCOCC3)nc(C)n2)CC1
  i, -0.26
O=C(Nc1ccc(F)cc1)c1ccc(-n2nc(OCc3cccc(F)c3)ccc2=O)cc1
  i, -0.42
O=C(Nc1ccc(F)cc1F)C1CCN(C(=O)c2ccc(-c3noc(C4CC4)n3)cc2)CC1
  i, 0.25
O=C(NCC1CCCO1)C1CCCN(c2ccnc(-c3ccc(F)cc3)n2)C1 (configuration not stated)
  i, -1.1
COc1ccccc1C(=O)Nc1ccc2c(c1)nc1n2CCN(Cc2ccccc2)C1
  i, 1
O=C(CC1CCN(S(=O)(=O)c2ccc(Cl)cc2)CC1)N1CCCCC1
  i, -0.9
O=C(CSc1nc2ncccc2o1)NCC1CCCO1 (configuration not stated)
  i, -0.39
CC(=O)N1CCc2cc(Br)c(S(=O)(=O)NCc3nc4nc(C)cc(C)n4n3)cc21
  i, 0.63
C#CCSc1nc2ccccc2c2nc(-c3ccncc3)nn12
  i, -0.43
CC1CCN(c2nc3ccccc3nc2C(F)(F)F)CC1
  i, -0.15
Cc1nc2nc(N(Cc3cc(F)cc(F)c3)S(=O)(=O)c3ccc(Cl)cc3)nn2c(C)c1Cl
  i, 1.1
COC(=O)c1nc2ccccc2nc1NC1CCC(C)CC1 (configuration not stated)
  i, 0.52

Compound activity as filed in PubChem BioAssay.
